PINK1 expr mod: A Quantitative High throughput Screen to Identify Chemical Modulators of PINK1 Expression; PINK1 immunofluorescence, high-content cytometry, 24 h; Potency, µM (series often up to 76.6 µM), inactives show at the top dose activation (PINK1 increase), actives largely listed as activators; hit rate 0.2% among 410,000; AID 624263, 2012; active = well fitted activation curve with a large enough effect; inconclusive = small, poorly fitted or top-dose-only effect; inactive = flat fitted curve, though single readings scatter; cell line not stated here;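 also: potency is read from the fitted curve at half-maximal effect; % of control where 0% means no effect; nearly all actives have a fitted effect of over 65% in size; a mitochondrial uncoupler was the plate control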
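Readout is PINK1 immunofluorescence, quantified alongside mitochondrial, cell and nuclear markers by laser-scanning microplate cytometry. Cells from a stable line were exposed to compound titrations (5 concentrations) for 24 hours, with CCCP controls.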
gsp agonist: qHTS for Agonist of gsp, the Etiologic Mutation Responsible for Fibrous Dysplasia/McCune-Albright Syndrome: qHTS; Potency, µM (top dose mostly 76.9 µM), without a hit: at the top dose activation (cAMP increase), actives largely listed as activators; hit rate 0.13% among 340,000; gsp mutant cells, cAMP HTRF, 30 min; control for the full effect not named in the record; AID 624287, 2012; active = well fitted activation curve with a large enough effect; inconclusive = small, poorly fitted or top-dose-only effect, or another doubt; inactive = no such curve, though single readings can be large or run the other way; cell line not stated here;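 also: phosphodiesterase inhibitor Ro 20-1724 added with compounds to block cAMP breakdown; potency is read from the fitted curve at half-maximal effect; nearly all actives have a fitted effect of over 60% in size; about a fifth of the inactives were tested at one dose only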
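Cells in DMEM/10% FBS with G418 were pretreated with compounds in DMSO plus […] (300 uM stock) for 30 min at 37C. cAMP was measured by HTRF (cAMP-d2 plus anti-cAMP antibody-K) after 30 min at room temperature.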
D2 ag: Beta-Arrestin HTS for Positive Allosteric Modulators of the Human D2 Dopamine Receptor: Agonists; D(2) dopamine receptor (Homo sapiens), P14416; DiscoveRx PathHunter D2 beta-arrestin, luminescence, 90 min; 100% = 57 uM dopamine signal; activation, % (concentration not given with the values); hit rate 0.084% among 360,000; AID 624465, 2012; in the data active = activation above about 40%; inconclusive = about 15% to 40%; inactive = below about 15%; also: compound concentration not given in the record; the text of the record calls up to 30% inactive
Target sequence (P14416 whole entry, looked up): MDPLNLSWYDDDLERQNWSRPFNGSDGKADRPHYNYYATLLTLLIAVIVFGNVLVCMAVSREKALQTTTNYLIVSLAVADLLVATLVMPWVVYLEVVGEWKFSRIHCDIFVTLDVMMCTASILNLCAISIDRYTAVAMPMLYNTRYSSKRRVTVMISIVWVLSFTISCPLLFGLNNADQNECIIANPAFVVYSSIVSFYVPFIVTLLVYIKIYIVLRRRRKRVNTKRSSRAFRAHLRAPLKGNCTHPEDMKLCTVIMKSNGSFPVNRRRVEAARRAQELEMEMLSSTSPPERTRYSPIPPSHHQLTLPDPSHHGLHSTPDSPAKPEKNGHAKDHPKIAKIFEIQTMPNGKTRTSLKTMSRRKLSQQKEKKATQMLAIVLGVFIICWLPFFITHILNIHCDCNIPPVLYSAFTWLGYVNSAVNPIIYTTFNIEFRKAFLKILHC
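Agonist mode: compounds alone added to overnight-plated D2 PathHunter cells for 90 min at 37 C, with 57 uM final dopamine (EC100) defining full response. Beta-arrestin recruitment detected by chemiluminescent reagent, read after 1 h at ambient temperature.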
ClpP mod: qHTS Assay for Activators of ClpP; ATP-dependent Clp protease proteolytic subunit (Bacillus subtilis (strain 168)), P80244; purified B. subtilis ClpP, FRET peptide cleavage, 20 min; Potency, µM (top dose mostly 57.5 µM), without a hit: at the highest dose activity change, negative = active; hit rate 1.9% among 340,000; active = well fitted falling curve with a large enough effect; inconclusive = small, poorly fitted or top-dose-only effect; inactive = no such curve, though single readings can be large or run the other way; also: potency is read from the fitted curve at half-maximal effect; the source files actives as falling curves though it sought activators and does not explain the sign; nearly all actives have a fitted effect of over 65% in size; many hits overshoot -100%
Target sequence (P80244 whole entry, looked up): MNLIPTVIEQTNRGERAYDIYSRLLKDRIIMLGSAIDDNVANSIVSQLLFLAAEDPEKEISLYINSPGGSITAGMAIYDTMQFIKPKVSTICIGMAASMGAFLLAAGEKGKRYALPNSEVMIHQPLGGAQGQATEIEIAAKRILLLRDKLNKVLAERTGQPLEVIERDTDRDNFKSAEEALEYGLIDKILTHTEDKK
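Buffer: 100 mM Tris/HCl pH8, 100 mM KCl, 0.05% low protease BSA, 2.5% glycerol, 0.01% Tween-20. ClpP 10 microg/mL final; 20 min RT; delta FRET normalized to ADEP and DMSO controls.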
Sfp PPTase inh: qHTS Assay for Inhibitors of Bacillus subtilis Sfp phosphopantetheinyl transferase (PPTase); 4'-phosphopantetheinyl transferase ffp (Bacillus subtilis), Q9F4F7; Biochemical Sfp PPTase activity, qHTS; Potency, µM, inactives show max response, negative = inhibition, actives largely listed as inhibitors; hit rate 3.5% among 310,000; AID 1490, 2009; active = well fitted inhibition curve with a large enough effect; inconclusive = small, poorly fitted or top-dose-only effect, or another doubt; inactive = no such curve, though single readings can be large or run the other way;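 also: the enzyme is Sfp with the accession as filed and its product quenches rhodamine fluorescence; potency is read from the fitted curve at half-maximal effect; 0% = enzyme reaction without inhibitor and -100% = no enzyme wells; top concentration of the series not given in the record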
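Compounds were incubated with enzyme (final 15 nM) for 15 min at room temperature before substrate addition started the reaction. Fluorescence at 525 nm excitation, 598 nm emission was recorded immediately and after 30 minutes.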
Menin MLL FP FL: qHTS Assay for Inhibitors Targeting the Menin-MLL Interaction in MLL Related Leukemias: Competition With Fluorescein Labeled MLL-derived Peptide. Fluorescence polarization, fluorescein-MLL peptide displacement from menin. FP activity change, % at 61.4 µM. 290,000 tested, under 10 active; inconclusive = falling polarisation curve, or a change in total fluorescence; inactive = total fluorescence flat and polarisation flat or rising; no compound was filed as active; the % refers to the polarisation; negative = inhibition;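 also: % of control where 0% means no effect; inhibitors lower the polarisation; unlabelled MLL peptide was the positive control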
gsp antag: qHTS for Antagonists of gsp, the Etiologic Mutation Responsible for Fibrous Dysplasia/McCune-Albright Syndrome: qHTS; gsp-mutant cells, cAMP HTRF, 30 min; control for the full effect not named in the record; Potency, µM (highest dose often 76.9 µM), without a hit: top-dose activity change, negative = inhibition, usual class: inhibitors; hit rate 0.4% among 340,000; AID 624288, 2012; active = falling curve of any shape with a large fitted effect; inconclusive = falling curve, mostly with a smaller effect; inactive = flat or rising curve; cell line not stated here;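 also: intracellular cAMP measured with PDE inhibitor Ro 20-1724 present during compound exposure; potency is read from the fitted curve at half-maximal effect; % is scaled to controls: 0 for no effect and ±100 for the full control effect; nearly all actives have a fitted effect of over 65% in size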
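HTRF cAMP measurement after 30 min RT detection following 30 min, 37C compound treatment alongside […] (added as 300 uM solution) in G418-selected cells seeded at 2000/well and grown 16–24 h.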
Starred values were filed as active, the others as inactive; ? = inconclusive; · = not tested or not shown; & = joins results of further samples; [ ] = another dose, or the depositor's remark. Some of the compounds tested (hit frequency here may not be typical).

Compound | PINK1 expr mod | gsp agonist | D2 ag | ClpP mod | Sfp PPTase inh | Menin MLL FP FL | gsp antag
N#Cc1ccc(CN2CC3(CCNCC3)C2)cc1 | -1.1% | · | · | · | -19% | -5.6 | ·
S=C(NC1CCCCC1)N1CCC(c2cnc[nH]2)CC1 | 0.9% | · | -3.6 | 2.0% | -2%&-6% | -0.5&3.2 | -3%
O=c1[nH]c(=S)[nH]c(O)c1N=Nc1ccc(OC(F)F)cc1 | 0.3% | ? | -11 | 1.8% | -4% | 7.5 | -19%
CCC(C)(O)C(=O)OC1C(=O)OC2CC3C(C)=CC(=O)C(O)C3(C)C3C4(O)OCC23C1C(C)C4O (configuration not stated) | -6.9% | 8% | -2.0 | -2.2% | · | · | 7%
CN(C)CCOC(=O)c1cn(Cc2ccccc2)c2ccccc12 | 14% | -25% | -4.9 | 4.8% | -4% | 6.1 | 9%
Cn1c(=O)cc(SCC(=O)N2CCC3(CC2)OCCO3)c2ccccc21 | 1.3% | ? | -2.8 | -16% | 14% | -0.4 | 0%
S=P(N1CCOCC1)(N1CC1)N1CC1 | 0.7% | -5% | 1.3 | · | · | · | 11%
Cc1ccc(-n2c(O)c(C=NCc3cccnc3)c(=O)[nH]c2=O)cc1C | 0.7% | -65%[inhibitor] | -4.1 | 0.8% | 5% | -0.7 | -6%
COC(=O)C1=C(c2c(C)noc2C)C[C@@H]2CC[C@H]1N2C(=O)NCc1ccc(C(F)(F)F)cc1 | 6.3% | -64% | 0.2 | 0.5% | · | · | -1%
Nc1c2c(nc3ccccc13)CCCC2=O | -2.3% | 20%[15.4 µM] | 1.2 | -0.6% | ? | -0.3 | -3%
CCOC(C(=O)OCC(O)CN(CC)CC)(c1ccccc1)c1ccccc1 (configuration not stated) | -1.4% | 20% | -2.7 | -0.5% | 14% | 3.2 | 13%
c1ccc(C(c2ccccc2)c2ccncc2)cc1 | 9.4% | -4%[15.4 µM] | -1.9 | 1.8% | · | · | -17%
CC(=O)CC(c1ccccc1[N+](=O)[O-])c1c(O)c2ccccc2oc1=O (configuration not stated) | 3.5% | -1% | 0.6 | · | 20% | 5.7 | -12%
CC(=O)O[C@H]1CC[C@@]2(C)[C@H](C1)C(=O)C[C@H]1[C@@H]3CC[C@@H]4[C@@H](CN5C[C@@H](C)CC[C@H]5[C@@]4(C)O)[C@@H]3C[C@@H]12 | 0.6% | 22% | 3.5 | -4.0% | 4% | 2.7 | -7%
CCN1CCN(C(=O)Cc2coc3cc(C)cc(C)c23)CC1 | -1.3% | -3% | -5.0 | -2.0% | 3% | -0.1 | 9%
CCN(N=Nc1nonc1OC)c1nonc1OC | -2.0% | 2% | -3.2 | 0.3% | 8% | 0.7 | 9%
O=C1NCN(c2ccccc2)C12CCN(C(c1cc3ccccc3o1)c1nnnn1Cc1ccccc1)CC2 (configuration not stated) | 0.1% | · | -1.6 | 0.0% | · | · | ·
CC12C=CC(=O)C=C1CCC1C2C(=O)CC2(C)C(=O)CCC12 (configuration not stated) | -2.9% | -47%[inhibitor] | -4.0 | -1.8% | · | · | 7%
C=CCn1c(O)c(/C=C2/C=CC=N2)c(=O)[nH]c1=O | 9.7% | -34%[inhibitor] | -12 | -0.7% | -1% | 3.7 | 0%
CCOC(=O)c1c(C)c(P(=S)(N2CCOCC2)N2CCOCC2)n(C)c1C | -0.7% | -35%[inhibitor] | 1.5 | 1.0% | 32µM* | 4.6 | -8%
COC(=O)C1=C(c2ccc(C(C)=O)cc2)C[C@@H]2CC[C@H]1N2C(=O)NCc1ccco1 | 1.1% | · | -1.9 | 1.3% | · | · | 7%
CC1OC(O[C@@H]2C(O)CC(O[C@@H]3C(O)C[C@@H](OC4CC[C@]5(C)[C@H](CC[C@H]6[C@@H]5CC[C@]5(C)C(C7=CC(=O)OC7)C(O)C[C@@]65O)C4)OC3C)OC2C)CC(O)C1O (some centres not stated) | -2.1% | · | · | · | -10% | -0.3 | ·
CCCC1COC(Cn2cncn2)(c2ccc(Cl)cc2Cl)O1 (configuration not stated) | -2.4% | -19% | -0.3 | -2.9% | ? | -1.1&4.7 | ?
CN1C(=O)NC(=O)/C(=C/c2ccc(C(=O)O)cc2)C1=O | 1.6% | -32%[inhibitor] | -0.9 | -0.5% | 45µM* | 0.8 | 7%
COc1cc(/C=C/c2nc3ccccc3c(=O)n2-c2ccccc2O)ccc1O | -2.5% | 28%[15.4 µM] | 11 | -1.6% | -5% | ? | -34%
CC1(C)CC(=O)C2=C(C1)OC(N)=C([N+](=O)[O-])C2c1ccc(C#N)s1 (configuration not stated) | -1.2% | -16%[15.4 µM] | -4.1 | · | 35µM* | 19 | -7%
COC(=O)c1ccc2ccn(CC(=O)NC(C)C)c2c1 | 23%[38.3 µM] | 13% | -0.9 | ? | 15% | -2.1 | -2%
Cc1nc2ccccc2c(=O)n1-c1nccs1 | 0.4% | · | 1.1 | -2.5% | · | · | ·
O=C(Cn1cc(C(=O)c2ccccc2)c2ccccc21)NCc1ccco1 | 3.2% | -5% | -2.8 | 0.3% | -24% | 2.1 | -4%
O=C(c1cccs1)N1CCC(C(=O)O)(c2ccccc2)CC1 | 2.6% | -6% | -3.0 | 1.1% | · | · | ·
CC(=O)OC1C2CCC1C(N1CCCCC1)CC2 (configuration not stated) | 2.1% | -21% | -5.7 | · | 23% | -2.0 | -3%
C[C@]12CCC3C(CC[C@H]4C[C@H](O)CC[C@]34C)C1C[C@@H](O)[C@H]2O (some centres not stated) | -1.2% | -5% | 1.9 | · | · | · | 9%
COCc1cc(OC(=O)N(C)C)nc2c1c(C)nn2C | 0.4% | 7%[15.4 µM] | 0.0 | -1.1% | 14% | -2.2 | 9%
OC1/C(=C/c2ccc(C(F)(F)F)cc2)N2CCC1CC2 (configuration not stated) | 1.7% | -8% | -6.3 | 0.6% | 10% | 2.5 | 5%
CCC(C)NS(=O)(=O)c1ccc(OCC(=O)N2CCN(CC)CC2)cc1 (configuration not stated) | ? | -38%[inhibitor] | -1.9 | -1.2% | -10% | -2.8 | 7%
COc1ccccc1CN1CCN(Cc2ccc(Cl)cc2)CC1 | 8.9% | -7% | -1.4 | · | 79µM* | -2.3 | 3%
O=Cc1cn(Cc2c(F)cccc2Cl)nc1-c1ccccc1 | -0.5% | -2%[15.4 µM] | -3.7 | -0.9% | · | · | ?
BrCCc1ccccc1 | -0.1% | · | -2.7 | -0.8% | · | · | -2%
CC(=O)c1c(O)c(C)c(O)c(Cc2c(O)c3c(c(C(=O)/C=C/c4ccccc4)c2O)OC(C)(C)C=C3)c1O | 5.8% | · | · | 0.5% | -6%&-12%&-11% | 29&5.0 | ·
Cc1cccc(C)c1-n1nnnc1C(C1CC1)N1CCC(n2c(=O)[nH]c3ccccc32)CC1 (configuration not stated) | -0.6% | · | 3.2 | 1.3% | · | · | ·
COc1ccc2c(c1OC)CN1CCc3cc4c(cc3[C@H]1C2)OCO4 | 1.2% | · | 2.2 | -4.6% | 5% | -3.6[24.8 µM] | -8%
O=C(COc1ccc(Cl)cc1)N(c1ccc(Cl)cc1)C1CN2CCC1CC2 (configuration not stated) | -3.7% | 1%[15.4 µM] | -6.9 | -0.3% | -4% | 0.6 | 22%
CSCCC(c1nnnn1C1CCCCC1)N1CCC(n2c(=O)[nH]c3ccccc32)CC1 (configuration not stated) | 4.9% | · | · | 1.5% | · | · | ·
COC(=O)C1=C(c2ccccc2)C[C@@H]2CC[C@H]1N2C | 1.3% | -11% | -0.6 | -0.6% | · | · | 6%
CC(C)(C)C(=O)c1cn(Cc2ccccc2)c2ccccc12 | 3.9% | -21%[15.4 µM] | 3.0 | · | -7% | -10 | -5%
CCN(CC)S(=O)(=O)c1ccc(C(=O)NC2CN3CCC2CC3)cc1 (configuration not stated) | -1.2% | 13% | 9.6 | 0.3% | 2% | -9.1 | 7%
CC(=C1C(=O)c2ccccc2C1=O)N1CCN(CCN=Cc2c(O)n(C)c(=O)n(C)c2=O)CC1 | -0.7% | -20% | -1.1 | 0.6% | 10% | 5.7 | -10%
Cc1nc2cc(-c3cccc(F)c3)nn2c(C)c1CCC(=O)N1CCC2(CC1)OCCO2 | 11% | -19% | -0.8 | ? | 15% | 0.2 | -1%
O=C1c2ccccc2-n2nncc2C2c3cc(Br)ccc3CCN12 (configuration not stated) | 4.0% | · | 1.6 | -1.2% | · | · | ·
C/C1=C\[C@@H](C)C/C=C/[C@H]2[C@@H]3O[C@]3(C)[C@@H](C)[C@H]3[C@H](Cc4c[nH]c5ccccc45)NC(=O)[C@]32C(=O)/C=C/C(=O)[C@@H]1O | -0.9% | · | -4.0 | -1.7% | 13µM* | 4.4 | 7%
Cc1c(C(c2ccc(F)cc2)c2c(O)c3ccccc3oc2=O)c(=O)n(-c2ccccc2)n1C (configuration not stated) | 0.0%&2.0% | 3%[15.4 µM] | -0.9 | -8.3%&0.3% | 13% | -1.0 | -31%
COc1ccc(C(CC(C)=O)c2c(O)c3ccccc3oc2=O)cc1OC (configuration not stated) | 1.9% | -32% | -3.0 | -4.8% | · | · | ·
CN(c1ccccc1)S(=O)(=O)c1cccc(C(=O)N2CCN(c3ccccn3)CC2)c1 | -1.9% | -47%[inhibitor] | 1.6 | 3.5% | 7% | -1.0 | -12%
O=P1(NCCCn2cc[n+](Cc3nc4ccccc4[nH]3)c2)C=C(c2ccccc2)OC(c2ccccc2)=C1 | 2.9% | 9%[15.4 µM] | -3.6 | · | -6% | -0.2 | 10%
CN(C)CCCN=Cc1c(O)n(CCc2ccc(F)cc2)c(=O)[nH]c1=O | 0.9% | -9% | -3.6 | -0.5% | 15% | 6.7 | 7%

Assay outcomes from PubChem.
